Rce1 inh = yeast Rce1p protease inhibitors, primary screen, biochemical, fluorescence, cell-free homogeneous; CAAX prenyl protease 2 (Saccharomyces cerevisiae (strain ATCC 204508 / S288c)), Q03530; yeast membranes, quenched prenylated peptide cleavage fluorescence; calls only; 290,000 compounds, 0.27% hits; AID 2563, 2010;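 active = fall in fluorescence gain of 50% or more versus controls, with final raw signal at or below 3038400; inconclusive = same 50% fall but final raw signal above 3038400; inactive = fall in fluorescence gain under 50%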;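 also: plate controls were neutral control wells for no effect and wells lacking membranes for full effect; tested at 10 µM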
MT1-MMP act inh = blockers of MT1-MMP proenzyme processing, primary screen, HT1080 RFP-PRO-GFP cells, GFP/RFP fluorescence; Matrix metalloproteinase-14 (Homo sapiens), P50281; GFP/RFP ratio fluorescence, overnight; percent of plate control window, DMSO zero; GFP/RFP ratio change, % at 20 µM; 360,000 compounds, 0.061% hits; AID 651647, 2012;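 active = GFP/RFP ratio change of at least 30% with cell ATP level not reduced by more than half and red fluorescence within 50% of control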; also: strong numbers were not always called active
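Test system: HT1080 RFP-PRO-GFP cells; Benchmarks: DMSO and RFP-L50D-GFP cell wells; Timing: cells overnight before dosing, compound overnight, 37 °C, 5% CO2; Compound: one 20 µM compound dose with 1% DMSO; Read-out: GFP/RFP fluorescence ratio.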
PABP FP inh = PABP poly(A) RNA binding inhibitors, primary screen, biochemical, fluorescence polarization, uHTS | AID 2014, 2009 | Polyadenylate-binding protein 1 (Homo sapiens), P11940 | inhibition, % at 35 µM | 290,000 compounds, 1% hits;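 active = 50% or more with normal probe brightness, or confirmed in later tests; inconclusive = above 50% with abnormal brightness, or retests that disagree; inactive = below 50% or failed in later tests; about a fifth of its hits are not listed in these tables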;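 also: calls also rest on retests at 20 µM and on dose response follow-up; controls were probe without protein and protein plus probe with vehicle; some compounds called inactive have numbers as strong as hits; many hits fall short of the cut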
Target sequence (P11940 whole entry, looked up): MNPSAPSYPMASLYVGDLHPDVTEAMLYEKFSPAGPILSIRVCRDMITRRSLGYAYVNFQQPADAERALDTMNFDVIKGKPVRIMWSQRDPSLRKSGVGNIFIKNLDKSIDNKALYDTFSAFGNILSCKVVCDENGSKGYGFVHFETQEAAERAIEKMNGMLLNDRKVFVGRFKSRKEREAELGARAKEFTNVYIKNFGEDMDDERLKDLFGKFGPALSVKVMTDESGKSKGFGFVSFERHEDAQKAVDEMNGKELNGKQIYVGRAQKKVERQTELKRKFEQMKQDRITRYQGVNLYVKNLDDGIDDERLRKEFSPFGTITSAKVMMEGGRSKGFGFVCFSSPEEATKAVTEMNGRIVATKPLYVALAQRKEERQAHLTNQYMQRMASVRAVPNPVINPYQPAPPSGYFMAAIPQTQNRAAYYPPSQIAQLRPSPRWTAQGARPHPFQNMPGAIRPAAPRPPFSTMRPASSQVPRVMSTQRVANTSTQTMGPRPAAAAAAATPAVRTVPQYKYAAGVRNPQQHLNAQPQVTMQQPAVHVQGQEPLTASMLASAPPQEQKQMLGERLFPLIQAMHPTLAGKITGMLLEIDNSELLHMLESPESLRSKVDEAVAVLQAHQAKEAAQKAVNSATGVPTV
CSC inhib = cancer stem cell viability inhibitors, primary screen, luminescence; cancer stem cell-like cells viability; inhibition, % at 7.5 µM; 300,000 compounds, 1.1% hits;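 active = mean at 75% or more and at least half the replicates too; inconclusive = mean and replicates disagree; tested in HMLE shEcad cells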;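 also: 0% = median of negative and 100% = median of positive control wells; the first replicate is given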
HIV Env fusion = inhibitors of HIV-1 Env-driven cell-cell fusion, primary screen, HeLa-JRFL effector, CEM21 target cells, luciferase; AID 651610, 2012; 360,000 compounds, 1.1% hits; inhibition, % at 12.3 µM;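 active = mean replicate inhibition score of at least 50 and every replicate individually at or above 50; inconclusive = only one of the two criteria met; inactive = mean below 50 and not all replicates reaching 50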;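 also: 0% = plate neutral controls and 100% = maraviroc near 300 nM; one replicate is shown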
UUG fidelity = modulators of yeast start codon fidelity, primary screen, whole organism, S. cerevisiae, single point, plate reader. activity score, % at 18.7 µM. 350,000 compounds, 0.13% hits. S. cerevisiae UUG-firefly luciferase reporter, luminescence/redox ratio;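 active = replicate mean at a twofold rise or more, about +100% in these data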;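 also: firefly luciferase made from a UUG start codon reports start codon fidelity; reporter light over untreated wells divided by growth signal over untreated wells; some hits fall short of that in this replicate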
eIF4H FP inh = human eIF4H binding inhibitors, primary screen, translation initiation inhibitor project, biochemical, uHTS, fluorescence polarization; inhibition, % at 35 µM; eIF4H fluorescence polarization binding assay; 290,000 compounds, 0.94% hits; Eukaryotic translation initiation factor 4H (Homo sapiens), Q15056;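 active = 50% or more with normal probe brightness, or confirmed in later tests; inconclusive = above 50% with abnormal brightness, or retests that disagree; inactive = below 50% or failed in later tests; about a fifth of its hits are not listed in these tables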;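 also: calls also rest on retests at 20 µM and on dose response follow-up; 0% = protein and probe with vehicle and 100% = probe without protein; strong numbers were not always called active; many hits fall short of the cut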
MT1-MMP act inh RFP = also measured in MT1-MMP act inh; calls as there; RFP signal change, %; measured here: RFP expression control read;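 0 = vehicle wells; hits needed this value within 50% of zero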
Starred values were filed as active, the others as inactive; i = inactive; ? = inconclusive; . = not tested or not shown; + = active, no number. These rows are one share of the data; rates above refer to the full screens.

item	canonical_smiles	HIV Env fusion	UUG fidelity	eIF4H FP inh	MT1-MMP act inh	CSC inhib	Rce1 inh	PABP FP inh	MT1-MMP act inh RFP
1	Cc1cc(C(F)F)n2nc(C(=O)Nc3ccccc3Br)nc2n1	-2	-12	2	0	-4	i	9	6
2	CN(C)CCN(Cc1ccccc1)S(=O)(=O)c1csc(C(N)=O)c1	2	-16	-1	1	-1	i	-2	0
3	CC(=O)Nc1ccc(S(=O)(=O)N2CCN(C(C)CCc3ccccc3)CC2)cc1 (configuration not stated)	-25	4	-11	-2	-2	i	26	1
4	CN(Cc1ccccc1)C(=O)c1[nH]cnc1C(=O)NC1CCN(C(=O)OC(C)(C)C)CC1	11	2	.	2	.	.	.	-6
5	CCOc1ccccc1/C=c1\sc2ncnn2c1=O	-53	-28	-2	0	-5	i	2	2
6	Cc1ccc(-c2cc3nc(-c4ccccc4)cc(NCCCO)n3n2)cc1	10	-17	.	4	.	.	.	3
7	CCc1ccc(-n2c(SCC(=O)c3ccc4c(c3)NC(=O)CO4)nc3ccccc3c2=O)cc1	5	.	-3	-1	22	i	-8	-4
8	O=C(NC1CCCC1)C(c1ccco1)N(C(=O)c1ccco1)c1ccc(F)cc1 (configuration not stated)	12	-12	6	2	.	i	-7	4
9	CCOC(=O)c1[nH]c2ccccc2c1NC(=O)C1CCCC1	0	-8	0	2	3	i	0	5
10	COc1ccccc1N1CCN(C(=O)N2CCOCC2)CC1	1	-13	3	-4	-12	.	2	-8
11	COc1ccc(N=c2oc3c(OC)cccc3cc2C(=O)NCc2ccco2)c(OC)c1	.	-7	5	1	29	i	6	-6
12	CC1CCN(CC(=O)Nc2ccc(S(=O)(=O)N3CCCC(C)C3)cc2)CC1 (configuration not stated)	10	-9	-4	3	19	i	-7	0
13	CC(C)Oc1ccc(C(=O)NCCNC(=O)c2ccco2)cc1	-7	-18	3	1	.	i	1	3
14	O=C(NCc1ccc2c(c1)OCO2)c1cc(-c2ccccc2)c(N2CCOCC2)s1	.	-10	-13	-3	-4	i	17	-5
15	Cc1ccc(C(O)c2ncc(-c3ccc(C(F)(F)F)cc3)[nH]2)cc1F (configuration not stated)	25	-16	.	2	.	.	.	-3
16	COc1ccc(N2CCN(C(=O)c3ccccc3F)CC2)c([N+](=O)[O-])c1	3	.	-10	-1	-14	i	2	5
17	CCCCc1c(O)nc(SCC(=O)c2ccccc2)n(-c2ccccc2C)c1=O	2	3	-9	0	0	i	4	4
18	CC1(C)C(=O)NCCN1C(=O)c1ccc2nc(Cc3ccccc3F)oc2c1	-15	-22	-2	-3	-2	i	10	-26
19	O=C(Nc1ccc(Cl)c(Cl)c1)Nc1nc(-c2ccccc2)cs1	35	-5	-4	-8	14	i	-8	-16
20	Cc1nc2ncnn2c(N2CCN(C(=O)c3cccc(F)c3)CC2)c1Cc1ccccc1	-16	-9	-5	7	-3	i	-2	-2
21	O=C(COc1ccccc1Cl)NC1CC1	-11	-15	1	3	-10	i	1	0
22	CC1CCCC(NC(=O)c2ccc3c(c2)OCO3)C1C (configuration not stated)	-58	-19	.	0	-7	i	.	2
23	Cc1cc(=O)oc2cc(NC(=O)C(C)Oc3ccc(F)cc3)ccc12 (configuration not stated)	0	-7	.	3	-8	i	.	0
24	COc1ccc(CN2CCc3ccccc3C2)c(OC)c1	-3	.	-6	-1	-8	i	3	1
25	COCCN(C(=O)CSc1nc2ccccc2s1)c1c(N)n(Cc2ccccc2)c(=O)[nH]c1=O	-12	-15	.	-22	.	.	.	7
26	CCn1c(SCC(=O)Nc2ccc(S(N)(=O)=O)cc2)nnc1-c1cccc(OC)c1	.	-11	-1	0	-10	.	-5	3
27	S=C(NCc1ccc(Cl)c(Cl)c1)NCc1ccco1	3	-19	-4	1	9	i	-6	7
28	COc1ccc(-c2nc(C)sc2C)cc1	-8	-16	-8	2	-10	i	0	2
29	CCOC(=O)c1ccc(N2C(=O)CC(N3CCC(O)(c4ccc(Br)cc4)CC3)C2=O)cc1 (configuration not stated)	.	.	-2	-1	-5	i	4	0
30	Cc1c(C(=O)NCCN2CCOC2=O)oc2c(F)cccc12	-2	2	-4	8	-1	i	-6	-1

Already shown: an excerpt of the list.
item	canonical_smiles	HIV Env fusion	UUG fidelity	eIF4H FP inh	MT1-MMP act inh	CSC inhib	Rce1 inh	PABP FP inh	MT1-MMP act inh RFP
20	Cc1nc2ncnn2c(N2CCN(C(=O)c3cccc(F)c3)CC2)c1Cc1ccccc1	-16	-9	-5	7	-3	i	-2	-2
21	O=C(COc1ccccc1Cl)NC1CC1	-11	-15	1	3	-10	i	1	0

The listing continues:
item	canonical_smiles	HIV Env fusion	UUG fidelity	eIF4H FP inh	MT1-MMP act inh	CSC inhib	Rce1 inh	PABP FP inh	MT1-MMP act inh RFP
31	COC(=O)CSc1ncccc1-c1nc2ccccc2[nH]1	-45	-11	0	5	-2	i	4	2
32	Cc1cccc(Cn2nc(C)c(NC(=O)c3ccc(F)cc3)c2C)c1	6	.	-6	0	0	i	43	-1
33	COc1cccc(-c2nnc(-c3ccc4ccccc4c3)o2)c1	-103	-17	.	1	.	.	.	0
34	Cn1c(=O)c2c(ncn2CC(=O)OCC(=O)NCc2ccccc2Cl)n(C)c1=O	8	-8	-9	-4	-10	i	3	0
35	CCCc1nnc(NC(=O)CCC(=O)N2CCN(Cc3cc(F)ccc3OC)CC2)s1	-4	2	.	3	-13	i	.	1
36	Nc1c(-c2cccc(Cl)c2)cnn1-c1ccccc1	-39	-15	3	-2	3	i	5	-3
37	Nc1cccc(NP(=O)(c2ccccc2)c2ccccc2)c1	-15	.	-12	-2	-9	i	-9	0
38	Cc1ccc(-n2nc(C)cc2NC(=O)CC#N)cc1	1	.	-6	-4	2	i	6	5
39	CCOC(=O)c1c(CSc2ccccc2)n(C)c2cc(Br)c(OCC(O)CNC(CO)(CO)CO)cc12 (configuration not stated)	-30	-9	-10	-9	100*	i	-1	-13
40	CC/C(=N/Nc1ccccc1)c1cnnc(-c2ccccc2)n1	-50	-5	-11	-3	16	i	8	0
41	CCOC(=O)C1(C)CCCN(C(=O)c2ccc(OC(F)F)cc2)C1 (configuration not stated)	13	-8	.	-1	.	.	.	3
42	CCOC(=O)CNC1CC(=O)N(c2ccc(Br)cc2)C1=O (configuration not stated)	3	-20	-18	-4	6	i	-9	-1
43	COc1cccc(/C=C/C(=O)Oc2ccc(C(=O)c3ccc(F)cc3)cc2)c1	.	.	-2	8	-5	i	32	4
44	CC1(C)OC(=O)NC1c1ccccc1 (configuration not stated)	2	-7	.	-2	.	.	.	4
45	O=C(NCCOc1ccccc1)C1CCCN1C(=O)c1cccs1 (configuration not stated)	.	-23	.	0	8	i	.	0
46	COC(=O)c1ccc(NC(=O)c2ccc(F)cc2)o1	.	3	-1	-1	6	i	1	-4
47	CCOc1ccc2[nH]c(=O)c(CN(Cc3ccc(F)cc3)C(=O)c3ccco3)cc2c1	.	-14	5	-5	31	i	-5	-9
48	Clc1ccc(Oc2nc(Oc3ccc(Cl)cc3)nc(N3CCOCC3)n2)cc1	48	-16	-8	-10	53	i	1	-12
49	COc1ccc(C2NC3=C(CCCC3)C(C#N)(C#N)C2(C#N)C#N)cc1 (configuration not stated)	.	.	?	.	-2	i	?	.
50	O=[N+]([O-])c1cccnc1Oc1cccnc1	4	-8	-4	-1	-14	i	-9	-1
51	COC(=O)C1=C(CS(=O)(=O)c2ccccc2)NC(=O)NC1c1ccc(OC)c(OC)c1 (configuration not stated)	-8	-2	-4	4	-5	i	12	5
52	CC(C)C(=O)N1CCN(c2ccccc2NC(=O)c2ccc(Br)o2)CC1	11	-7	.	-7	-1	.	.	-4
53	COc1cccc(NC(=O)C2(C)CCN2C(=O)Cc2ccc(C(C)C)cc2)c1 (configuration not stated)	-2	3	.	6	.	.	.	-2
54	O=S(=O)(NCCNS(=O)(=O)c1c(F)cccc1F)c1ccc2c(c1)OCCO2	-37	5	.	1	.	.	.	-1
55	Cc1cc(-c2c(C)[nH]n(-c3ccc(Cl)cc3)c2=O)n(-c2ccccc2)n1	-158	-13	1	-1	3	.	-3	0
56	COc1ccc(CCNC(=O)c2ccc(N3CCCC3=O)cc2)cc1	.	-20	2	4	-7	i	-10	2
57	CCOC(=O)N1CCN(C(=O)c2cn(CC)c3cc(N4CCN(C)CC4)c(F)cc3c2=O)CC1	.	.	6	.	-12	i	38	.
58	COc1cc2ccccc2cc1C(=O)Nc1ccc(N2CCN(C(=O)C(C)C)CC2)cc1	0	-10	-6	-1	48	i	-1	-10
59	O=C(CN(c1cccc(Cl)c1)S(=O)(=O)c1ccc(Cl)cc1)NCc1ccccn1	-2	-20	-9	1	7	i	-2	-20
60	COc1cccc(-c2cc(C(=O)NCC3CCCO3)c3ccccc3n2)c1 (configuration not stated)	0	-6	-4	-7	16	i	13	1

In another format: results already given
44. CC1(C)OC(=O)NC1c1ccccc1 (configuration not stated)
  HIV Env fusion: 2 | UUG fidelity: -7 | eIF4H FP inh: . | MT1-MMP act inh: -2 | CSC inhib: . | Rce1 inh: . | PABP FP inh: . | MT1-MMP act inh RFP: 4
45. O=C(NCCOc1ccccc1)C1CCCN1C(=O)c1cccs1 (configuration not stated)
  HIV Env fusion: . | UUG fidelity: -23 | eIF4H FP inh: . | MT1-MMP act inh: 0 | CSC inhib: 8 | Rce1 inh: i | PABP FP inh: . | MT1-MMP act inh RFP: 0
46. COC(=O)c1ccc(NC(=O)c2ccc(F)cc2)o1
  HIV Env fusion: . | UUG fidelity: 3 | eIF4H FP inh: -1 | MT1-MMP act inh: -1 | CSC inhib: 6 | Rce1 inh: i | PABP FP inh: 1 | MT1-MMP act inh RFP: -4
47. CCOc1ccc2[nH]c(=O)c(CN(Cc3ccc(F)cc3)C(=O)c3ccco3)cc2c1
  HIV Env fusion: . | UUG fidelity: -14 | eIF4H FP inh: 5 | MT1-MMP act inh: -5 | CSC inhib: 31 | Rce1 inh: i | PABP FP inh: -5 | MT1-MMP act inh RFP: -9

Next structures
item	canonical_smiles	HIV Env fusion	UUG fidelity	eIF4H FP inh	MT1-MMP act inh	CSC inhib	Rce1 inh	PABP FP inh	MT1-MMP act inh RFP
61	O=c1[nH]ncc(NCCCO)c1Cl	.	-13	-8	-8	17	i	3	0
62	O=C(CCn1nnc2ccccc21)Nc1nnc(COc2ccccc2F)s1	12	-6	-2	2	-4	i	-2	0
63	COc1ccc(CCNC(=O)c2cc3c(C)nccc3[nH]c2=O)cc1OC	15	6	-7	0	7	i	18	-1
64	c1ccc2c(c1)nc1n2CCN1	.	-16	2	2	-7	i	0	3
65	Cc1cc(=O)oc2cc(OCC(=O)OCC(=O)NC(C)C)ccc12	23	2	2	.	6	.	-15	.
66	CCC1(C)CN=C(c2ccccc2)NC1 (configuration not stated)	6	-22	.	8	.	.	.	2
67	CC(=O)C1=C(O)C(=O)N(c2ccccn2)C1c1cccc(F)c1 (configuration not stated)	0	6	10	4	-11	i	7	1
68	O=C(CCc1nnc(CCC2CCCCC2)o1)NCCn1cccn1	9	.	-6	3	-1	i	-10	5
69	CCOc1ccc(S(=O)(=O)Nc2cc(OC)c(OC)cc2C(=O)O)cc1	-23	.	-2	4	-11	+	8	0

Compound activity: PubChem BioAssay, several laboratories
